Source: PubChem
GIV Gai3 FP – inhibitors of GIV peptide binding to Galpha-i3, primary screen, biochemical, fluorescence polarization, FITC-GIV GBA peptide, rat Galphai3; Guanine nucleotide-binding protein G(i) subunit alpha-3 (Rattus norvegicus), P08753; 90 min; hits give low values; scaled: aluminum fluoride 0%, vehicle 100%; percent of control (FP), % (no concentration beside the values); 210,000 compounds, 0.42% hits; AID 1224905, 2016;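 active = replicate mean at 85% of control or lower, very high polarization wells dropped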;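 note: wells of about 15 µL received 100 nL stock; the first replicate is given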
Target sequence (P08753 whole entry, looked up): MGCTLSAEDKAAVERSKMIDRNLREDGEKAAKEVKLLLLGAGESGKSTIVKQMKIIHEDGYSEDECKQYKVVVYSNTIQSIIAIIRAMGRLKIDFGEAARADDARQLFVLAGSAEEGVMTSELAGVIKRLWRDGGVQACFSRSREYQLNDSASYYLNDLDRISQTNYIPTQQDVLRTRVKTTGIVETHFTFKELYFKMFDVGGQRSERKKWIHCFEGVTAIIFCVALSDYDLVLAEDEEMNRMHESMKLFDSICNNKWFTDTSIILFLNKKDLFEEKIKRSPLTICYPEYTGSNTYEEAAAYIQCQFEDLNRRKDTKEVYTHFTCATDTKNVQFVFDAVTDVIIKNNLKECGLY
The depositor's hits bear a star. Not all compounds are listed (hit frequency here may not be typical).

SMILES	GIV Gai3 FP
CCOC(=O)c1[nH]c(C)c(CCC(=O)N2CCCC(C(=O)NCCN3CCOCC3)C2)c1C (configuration not stated)	106
CCOC(=O)N1CC=C2C(C#N)=C(N)C(C#N)(C#N)C(c3ccc(-c4ccccc4)cc3)C2C1 (configuration not stated)	113
COc1ccc(NC(=O)c2sc3ncn(CC(=O)N4CCN(c5ccccn5)CC4)c(=O)c3c2C)cc1OC	98
CCOCCCNC(=O)c1cc(S(=O)(=O)N2CC(C)CC(C)C2)ccc1Sc1ccc(Br)cc1 (configuration not stated)	113
Cc1nc(-c2cc(S(=O)(=O)NCCN3CCC(C)CC3)c(C)s2)sc1C	107
O=C1C2C3c4ccccc4C(C(=O)O)(c4ccccc43)C2C(=O)N1Cc1ccccc1 (configuration not stated)	115
O=[N+]([O-])c1ccc(Nc2nc(NCCO)nc(N3CCOCC3)n2)cc1	107
CC(C)NC(=O)c1cnn2c3c(cnc12)C(=O)CC(C)(C)C3	100
CC12COC3(C(=O)NC4CCCCC4)CC1CCC32C (configuration not stated)	121
CC(=O)Nc1ccc(-c2noc(C3CCCN(C(=O)c4ccsc4)C3)n2)cc1 (configuration not stated)	105
Cc1cccc(-n2nc3c(c2NC(=O)c2ccc(S(=O)(=O)N4CCCCC4)cc2)CS(=O)(=O)C3)c1C	115
O=C1C2C3C=CC(C3)C2C(=O)N1CN1CCN(CN2C(=O)C3C4C=CC(C4)C3C2=O)CC1 (configuration not stated)	112
CN(CCO)c1cc(N2CCN(c3cccc(Cl)c3)CC2)c2nonc2c1[N+](=O)[O-]	104
O=C(C1CC(=O)N(C2CCCCCC2)C1)N1CCCC1 (configuration not stated)	99
CCOC(=O)c1sc2nc(SCc3cc(C(C)=O)ccc3OC)n(CC3CCCO3)c(=O)c2c1C (configuration not stated)	105
Nc1nc(CSc2nc3ccccc3[nH]2)nc(N2CCOCC2)n1	101
COCCn1c(C2CCN(S(=O)(=O)c3ccc(Cl)s3)C2)nc2cccnc21 (configuration not stated)	110
Cc1ccc(Nc2cc(C)nc(N3CCN(C(=O)Nc4cccc(C)c4)CC3)n2)cc1	103
O=C(NCc1ccc(F)cc1)c1nn2c(c1Br)NC(c1ccccc1)CC2C(F)(F)F (configuration not stated)	104
CCN(CC)C(=O)C1CCCN(c2ncnc3c2cnn3-c2ccc(C)cc2C)C1 (configuration not stated)	102
COc1ccc(NC(=O)c2sc3nc(C)nc(N4CCOCC4)c3c2C)cc1OC	111
CN(C)c1ncncc1N1CCC(C(=O)NCCCN2CCOCC2)CC1	105
Cc1nc(CNC(=O)[C@H]2CCCN2S(=O)(=O)c2cccs2)cs1	99
CCOc1cc(-c2ccccc2O)ncn1	103
Cc1nn(-c2nc3ccccc3o2)c2c1C(c1ccc(F)cc1Cl)CC(=O)N2 (configuration not stated)	107
CCc1cc(Sc2ccc(NC(=O)Nc3ccc(Br)cc3F)cc2)n2ncnc2n1	105
CN(CCc1noc(-c2ccc(C(=O)N3CCCC3)cc2)n1)C(=O)Nc1ccccc1	105
CCCn1nc(Oc2nc(N(C)C)nc(N(C)C)n2)ccc1=O	109
COC(=O)C1=CN(Cc2ccc(F)cc2)C=C(C(=O)OC)C1c1cc2c(cc1Br)OCO2	101
CCc1nn2c(c1-c1ccc(C)c(S(=O)(=O)NC3CC3)c1)NC(=O)CCC2=O	113

The final five records of the section above come first, to join the parts:
SMILES	GIV Gai3 FP
CCc1cc(Sc2ccc(NC(=O)Nc3ccc(Br)cc3F)cc2)n2ncnc2n1	105
CN(CCc1noc(-c2ccc(C(=O)N3CCCC3)cc2)n1)C(=O)Nc1ccccc1	105
CCCn1nc(Oc2nc(N(C)C)nc(N(C)C)n2)ccc1=O	109
COC(=O)C1=CN(Cc2ccc(F)cc2)C=C(C(=O)OC)C1c1cc2c(cc1Br)OCO2	101
CCc1nn2c(c1-c1ccc(C)c(S(=O)(=O)NC3CC3)c1)NC(=O)CCC2=O	113
O=C(CCN1C(=O)C2C3C=CC(C3)C2C1=O)Nc1c(F)cc(F)cc1Br (configuration not stated)	108
N#Cc1c(SCC(=O)Nc2nccs2)nc2c(c1-c1ccco1)CCCC2	106
Cc1ccc(C2CC(c3cccs3)=NN2C(=O)CSc2nnc(CNC(=O)c3ccco3)n2C)cc1 (configuration not stated)	109
O=C1COc2ccc(S(=O)(=O)N3CCc4ccccc4C3)cc2N1Cc1noc(C2CCC2)n1	103
CN1C=C/C(=C\C=C2/C=Nc3ccccc32)c2ccccc21	-76*
CCC(C)NC(=O)c1ccc(-c2ccc(C)cc2)nc1 (configuration not stated)	105
CSc1ccc(-c2nc(-c3ccc(Br)cc3)c(-c3ccccc3Br)[nH]2)cc1	111
CCOC(=O)C1=C(C)NC2=C(C(=O)C(C(=O)OCC)C(c3ccccc3OC)C2)C1c1cccc(OC)c1 (configuration not stated)	104
Cc1cccc(NC(=O)Nc2cccc(CCc3nc4ccccc4n3C)c2)c1C	98
CCCCC(C(=O)Nc1ccccc1Cl)N1C(=O)c2ccccc2C1=O (configuration not stated)	109
O=C(CN1C2=NCCN2c2ccccc21)c1ccc(Cl)c(Cl)c1	111
CCOC(=O)c1cnc2c(ccc3ccccc32)c1Nc1ccccc1CC	107
COc1cccc(-n2nnc(-c3nsc(Nc4ccccc4)n3)c2C)c1	102
O=[N+]([O-])c1ccc(CSc2nnc(-c3ccco3)n2Cc2ccccc2)cc1	114
Cc1cccc(-c2cncc(C(=O)NCc3ccc(Cl)cc3)c2)c1	101
O=C(CSc1ncnc2sc3c(c12)CCCC3)NCCc1ccccc1	102
CN(CC(=O)NCC1CCCO1)S(=O)(=O)c1cc2c(cc1Cl)NC(=O)CO2 (configuration not stated)	106
CC(=O)Nc1ccc(N2C(=S)N=C(Nc3c(C)cccc3C)C23CCC(C(C)(C)C)CC3)cc1 (configuration not stated)	108
O=C(c1cccs1)N1CCC(Oc2cc(N3CCCC3)ncn2)C1 (configuration not stated)	99
COc1ccc(-n2cc(C(=O)Oc3ccc4cnccc4c3)c3cc(OC)c(OC)cc3c2=O)cc1	110

3 entries out of the list above, sorted by the number in GIV Gai3 FP, rising:
SMILES	GIV Gai3 FP
Cc1cccc(-c2cncc(C(=O)NCc3ccc(Cl)cc3)c2)c1	101
COc1cccc(-n2nnc(-c3nsc(Nc4ccccc4)n3)c2C)c1	102
COc1ccc(-n2cc(C(=O)Oc3ccc4cnccc4c3)c3cc(OC)c(OC)cc3c2=O)cc1	110

Further compounds follow:
SMILES	GIV Gai3 FP
O=C(NC1CCCCC1)C1CCN(c2cncnc2N2CCCC2)CC1	99
CCSc1nnc2c(S(=O)(=O)N3CCOCC3)cccn12	100
COc1ccc(C2CC(=O)Nc3c2c(C)nn3-c2ccc3nnc(C)n3n2)c(OC)c1 (configuration not stated)	107
O=C(Nc1ccc(Br)cc1)N1CCN(CCn2cnc3cccnc32)CC1	97
CCNc1cc(C)nc(N2CCN(S(=O)(=O)c3ccc(F)cc3)CC2)n1	102
COc1ccc(C2C(C#N)=C(N)Oc3n[nH]c(C)c32)cc1CN1CCCc2ccccc21 (configuration not stated)	104
Cc1cc2c(cc1S(=O)(=O)N1CCCCC1C)OCC(=O)N2Cc1noc(C2CC2)n1 (configuration not stated)	101
O=C(Nc1ccc2c(c1)Sc1ccccc1C(=O)N2C1CC1)C1CC(=O)N(c2ccccc2)C1 (configuration not stated)	104
O=S(=O)(c1ccc2c(c1)-c1oncc1CO2)N1CCN(c2ccccn2)CC1	104
COC(=O)Cc1nc(NC2CCCCC2)c2c3c(sc2n1)CCCC3	102
Cc1cccc(NC(=O)C2C(=O)NC3(C)CC2c2ccccc2O3)c1 (configuration not stated)	109
Cc1ccc(-c2ccc(N3CCOCC3)nn2)cc1S(=O)(=O)N1CCCC1	105
CCOC(=O)c1c(NC(=O)CSc2nc3ccccc3[nH]2)sc2c1CCC2	107
Cc1sc(-c2nc(C(C)C)cs2)cc1S(=O)(=O)Nc1cc(F)ccc1F	102
Cc1cccc2c1N(C(=O)Cc1ccccc1)C(C)(C)CC2(C)c1ccccc1 (configuration not stated)	107
CCCCn1c(CNC(=O)c2ccccc2OC)nnc1SCC(=O)Nc1sc2c(c1C(=O)OCC)CCC2	109
COc1ccc(N2CCN(c3ncnc4c3cnn4-c3ccc(OC)cc3)CC2)cc1	105
O=C(CCc1nc2ccccc2n(CC(=O)NC2CCc3ccccc32)c1=O)NC1CC1 (configuration not stated)	99
Cc1nnc(NC(=O)CSc2nc(=O)n(Cc3ccccn3)c3c2CCC3)s1	103
CCOC(=O)c1c(S(=O)(=O)NCC(=O)Nc2ccc(C)cn2)c(C)n(CC)c1C	103
Cc1ccc(-c2nc(CSCC(=O)NC3CC3)no2)cc1	102
COc1cccc(Cn2cccc(S(=O)(=O)N3CCC(C)CC3)c2=O)c1	104
CCc1ccc(S(=O)(=O)N(C(=O)c2ccc(C)cc2)c2ccc3oc(C)c(C(C)=O)c3c2)cc1	108
CCOC(=O)C1CCN(C(=O)CCc2nc(-c3ccc(N4CCCC4)cc3)no2)CC1	104
CCOC(=O)c1[nH]c(C)c(CN(Cc2ccc(OC)cc2)C(=O)Nc2ccc(OC)cc2)c1C	102
COC(=O)CON1C(=O)CN(C(=O)c2ccccc2)C1c1ccc(Cl)cc1Cl (configuration not stated)	121
CCOc1ccc(Br)cc1C1C(C#N)=C(N)Oc2cc(C)oc(=O)c21 (configuration not stated)	108
CCCC(=O)N(c1ccc2oc(C)c(C(=O)OCC)c2c1)S(=O)(=O)c1ccc(C)cc1	106
CC(C)CNC(=O)CCn1c(=O)c2ccccc2n2c(SCC(=O)NC3CCCC3)nnc12	97
O=C(c1ccc(Cl)cc1)N1CCN(Cc2cc(=O)n3nc(-c4ccccc4F)sc3n2)CC1	96

Rewritten with values ahead of the structure: 4 of the compounds above.
GIV Gai3 FP,SMILES
106,CN(CC(=O)NCC1CCCO1)S(=O)(=O)c1cc2c(cc1Cl)NC(=O)CO2 (configuration not stated)
108,CC(=O)Nc1ccc(N2C(=S)N=C(Nc3c(C)cccc3C)C23CCC(C(C)(C)C)CC3)cc1 (configuration not stated)
99,O=C(c1cccs1)N1CCC(Oc2cc(N3CCCC3)ncn2)C1 (configuration not stated)
110,COc1ccc(-n2cc(C(=O)Oc3ccc4cnccc4c3)c3cc(OC)c(OC)cc3c2=O)cc1

Next records
SMILES	GIV Gai3 FP
CC(C)OP(=O)(OC(C)C)C(Nc1ccc(Br)cc1)c1ccc(O)cc1 (configuration not stated)	115
CCc1nc(CN2C(=O)COc3cc(S(=O)(=O)N4CCCC4)c(Cl)cc32)no1	104
CCc1ccc(NC(=O)CSC2=C(C#N)C(c3ccccc3Cl)C(C(=O)OC)C(=O)N2)cc1 (configuration not stated)	107
COc1cccc2cc(C(=O)NCc3cccc(Cl)c3)c(=Nc3ccc(C(=O)O)cc3)oc12	109
COc1ccc(N(C(=O)c2ccc(Cl)cc2)C2=CC3CCC(C2)N3C)cc1 (configuration not stated)	103
O=C(Nc1c2c(nn1-c1ccc([N+](=O)[O-])cc1)CS(=O)(=O)C2)c1ccc(S(=O)(=O)N2CCCCC2)cc1	100
Cc1cc(-c2c(-c3ccc(Cl)cc3)[nH]c3c2c(=O)n(C)c(=O)n3C)c(C)s1	95
COc1ccccc1Oc1cc(-c2cccc(C(=O)Nc3cccc(Cl)c3)c2)ncn1	108
Cc1nnc(NC(=O)c2sc3ncnc(N4CCOCC4)c3c2C)s1	101
O=C(Nc1ccc2c(c1)OCCO2)c1cccc(Oc2cc(-c3ccc(F)cc3)ncn2)c1	97
CCc1ccc(N(C)S(=O)(=O)c2ccc3[nH]cc(C(=O)N4CCN(c5ccccc5)CC4)c(=O)c3c2)cc1	111
Cc1cc2nc(COc3ccc(Cl)cc3NC(=O)C(C)C)cc(=O)n2o1	108
COc1ccc(C2CC(=O)C3=C(C2)Nc2ccccc2NC3c2ccccc2C)cc1OC (configuration not stated)	98
CC1CCN(CC(=O)N2c3ccccc3CCc3ccccc32)CC1	109
COCCn1c(CNS(=O)(=O)c2ccc(Cl)cc2)nc2cccnc21	104
Cc1ccccc1-n1c(=S)sc2c1nc(SCc1ccc(Cl)cc1)n1c3ccccc3nc21	102
O=C(NCC1CCCCC1)c1sc2ncccc2c1-n1cccc1	106
COCCCNC(=O)CSc1nc2c(sc(=S)n2-c2cc(Cl)ccc2OC)c(=O)[nH]1	116
O=C(O)c1ccc(CNS(=O)(=O)c2cccc3nsnc23)cc1	105
Cn1nc(C(=O)N2CCCC(C(=O)NC3CC3)C2)c2c1CCN(C(=O)C1CCCCC1)C2 (configuration not stated)	104
CCCc1[nH]n(-c2ccc(F)cc2)c(=O)c1C=Nc1ccc(OCC)cc1	103
O=C(CCn1c(N2CCCC2)nc2ccsc2c1=O)N1CCN(c2ccc(F)cc2)CC1	99
O=c1c2c3c(sc2ncn1Cc1ccc(Cl)cc1)CCCC3	102
COCCCNC(=O)c1cc(S(=O)(=O)N2CCOCC2)ccc1SCc1cccc(OC)c1OC	100
COc1ccc(-n2c3c(cc(C(=O)N4CCOCC4)c2=O)C(=O)CC(C)(C)C3)cc1	112
Cc1ccc(C2CC(=O)NC(SCC(=O)Nc3cc(Cl)cc(Cl)c3)=C2C#N)cc1 (configuration not stated)	107
Cc1nc(SCC(=O)Nc2cccc(C(F)(F)F)c2)c(C#N)c(C)c1C	105
Cc1ccc(/C(O)=C2\C(=O)C(=O)N(CCCN3CCOCC3)C2c2ccccc2F)cc1 (configuration not stated)	118
CCOC(=O)c1c(C)c(CCC(=O)N2CCN(c3ccccn3)CC2)n(C)c1C	111
CCOC(=O)C1CCN(S(=O)(=O)c2cc(-c3nc(C(C)(C)C)cs3)cs2)CC1	98
Cc1ccc(-c2n[nH]c(CCNS(=O)(=O)c3cccc(C)c3)n2)cc1	103
COc1ccc(N2C(=S)N=C(Nc3cccc(C(F)(F)F)c3)C23CCC(C(C)(C)C)CC3)cc1 (configuration not stated)	110
CCOP(=O)(OCC)C(Nc1ccc([N+](=O)[O-])cc1)c1ccccc1 (configuration not stated)	106
Cc1onc(-c2ccccc2Cl)c1C(=O)Nc1c2c(nn1-c1ccc(Cl)cc1)CS(=O)(=O)C2	105
CC(C)Cc1csc(-c2csc(S(=O)(=O)NC(C)(C)C)c2)n1	100
Cn1nnc2cc(-c3noc(Cc4ccc(F)cc4)n3)ccc21	103
COc1ccc(C2=C(Cl)C=C(c3ccccc3)c3ccccc3O2)cc1OC	106
